Screens from PubChem.
GIV Gai3 FP – blocks GIV peptide binding to rat Galpha-i3; P08753; Galpha-i3/FITC-GIV peptide fluorescence polarization, 90 min; active compounds read low; scaled: aluminum fluoride 0%, vehicle 100%; percent of control (FP), % (concentration not given with the values); 210,000 tested, 0.42% active; AID 1224905;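 active = replicate mean at 85% of control or lower, very high polarization wells dropped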;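 also: wells of about 15 µL received 100 nL stock; the first replicate is given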
Target sequence (P08753 whole entry, looked up): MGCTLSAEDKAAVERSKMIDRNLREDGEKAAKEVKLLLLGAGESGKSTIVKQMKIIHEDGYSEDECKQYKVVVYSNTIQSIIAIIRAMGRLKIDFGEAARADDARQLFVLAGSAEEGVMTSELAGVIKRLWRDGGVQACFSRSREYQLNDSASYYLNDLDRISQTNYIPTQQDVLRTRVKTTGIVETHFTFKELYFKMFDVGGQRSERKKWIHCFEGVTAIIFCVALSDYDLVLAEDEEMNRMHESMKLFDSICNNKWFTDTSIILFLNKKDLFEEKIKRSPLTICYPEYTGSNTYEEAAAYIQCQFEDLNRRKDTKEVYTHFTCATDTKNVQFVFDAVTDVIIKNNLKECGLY
HCMV UL50-53 inh – inhibitors of HCMV UL50-UL53 nuclear egress complex interaction. HTRF UL50-UL53 interaction, normalized percent inhibition. inhibition, % (concentration not given with the values). 190,000 tested, 0.15% active. AID 1918969;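 active = both replicates at 50% or more, plus weaker picks with an unusually low signal ratio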;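 also: stock transfer was 100 nL into about 20 µL; 0% = negative control wells and 100% = wells with untagged competitor protein; inactives centre near -12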
Sa growth 42C – blocks Staphylococcus aureus growth; 170,000 tested, 0.53% active; relative growth, % (concentration not given with the values); S. aureus RN4220 growth, OD600, 20 h, 42 °C; active compounds read low; AID 720641;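 active = growth at 42 °C up to 50% and 20 or more points under that at 30 °C, or under 10% at both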;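 also: 300 nL library stock went into each well; scaled to the means of positive and negative controls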
Sa growth 42C second temp – recorded beside Sa growth 42C, whose call it bears; relative growth, %; measured here: growth at 30 °C;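 optical density after 20 h as mean of two plates; 100% = untreated growth and lower means inhibition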
Active calls of the source: *; · = not tested or not shown.

Sample of the layout:
SMILES	GIV Gai3 FP	HCMV UL50-53 inh	Sa growth 42C	Sa growth 42C second temp
Cc1ccccc1C(=O)NC(=S)N1CCC(C)CC1	99	-10	108	88
O=C(Nc1ccccc1Cl)C1CCC1	·	4	97	94

The whole of this part (from the top)
SMILES	GIV Gai3 FP	HCMV UL50-53 inh	Sa growth 42C	Sa growth 42C second temp
Cc1ccccc1C(=O)NC(=S)N1CCC(C)CC1	99	-10	108	88
O=C(Nc1ccccc1Cl)C1CCC1	·	4	97	94
CCOc1ccc(C(=O)NCCc2csc(-c3ccc(C(F)(F)F)cc3)n2)cc1OCC	95	·	100	91
O=C(O)c1cccc(-n2cccc2)c1	101	-6	130	60
COc1ccc(C(=O)NCCc2csc(C)n2)cc1	97	-13	·	·
O=S(=O)(Nc1cccnc1Oc1ccc(Cl)cc1)c1ccccc1	101	0	158	109
COc1cc(Cl)ccc1NC(=S)N(CCCN1CCOCC1)C1CCN(C(C)=O)CC1	104	-26	109	84
COc1ccc(CC(=O)NCc2ccc3c(c2)CCN3C(C)=O)cc1	103	·	122	83
O=C(O)COc1cccc(NC(=O)c2ccccc2)c1	102	0	98	90
O=C(CSc1n[nH]c(-c2ccc(Br)cc2)n1)N1CCCC1	·	-6	93	96
Cc1cc(-c2ccc(F)cc2)nc2cc(C(=O)Nc3ccccc3C(F)(F)F)nn12	·	-38	87	86
CC(=O)OC(C(=O)NC1CCCCC1)c1ccccc1 (stereo not given)	106	-7	97	92

One compound at a time, from the list above. Order of screens: GIV Gai3 FP	HCMV UL50-53 inh	Sa growth 42C	Sa growth 42C second temp
`COc1ccc(CC(=O)NCc2ccc3c(c2)CCN3C(C)=O)cc1` is entered as 103	·	122	83
`COc1ccc(C(=O)NCCc2csc(C)n2)cc1` is entered as 97	-13	·	·
`O=S(=O)(Nc1cccnc1Oc1ccc(Cl)cc1)c1ccccc1` is entered as 101	0	158	109
`O=C(Nc1ccccc1Cl)C1CCC1` is entered as ·	4	97	94
`CC(=O)OC(C(=O)NC1CCCCC1)c1ccccc1` (stereo not given) is entered as 106	-7	97	92

Next section.
SMILES	GIV Gai3 FP	HCMV UL50-53 inh	Sa growth 42C	Sa growth 42C second temp
CCc1cccc(CC)c1NC(=O)CCS(=O)(=O)c1ccc(Br)cc1	108	·	114	101
CCOC(=O)c1cncc(C#CCOC(=O)c2ccc(Cl)cn2)c1	108	10	90	94
C/C(=C\C(=O)c1ccccc1)Nc1ccc(N2CCOCC2)cc1	95	-1	104	100
Cc1cc(C)c(S(=O)(=O)Nc2cnc(N(CC(C)C)CC(C)C)c(C(=O)O)c2)c(C)c1	112	-40	·	·
CCOC(=O)C1=C(C)NC2=C(C(=O)C(C(=O)OC)C(C)C2)C1c1cccc(OC)c1OC (stereo not given)	99	-6	98	90
Cc1onc(-c2c(F)cccc2Cl)c1C(O)c1ccc(F)cc1 (stereo not given)	104	5	106	102
O=C(NOC(=O)c1cccs1)c1ccccc1	108	-14	103	92
CCn1c(C)cc2c(c1=O)C(C(C)C)C(C#N)=C(N)O2 (stereo not given)	102	-30	97	83
O=C(c1ccccc1Cl)N1c2ncnn2C2(CCCCC2)[C@@H]2CCCC[C@@H]21	99	-1	99	96
CN(CCc1noc(COc2ccccc2F)n1)C(=O)CC1CCCC1	100	-10	·	·
N#C/C(=C\c1ccc(C2=CCOc3ccccc32)s1)S(=O)(=O)c1ccccc1	101	-47	91	92
CC1CCCCN1C(=O)CSc1nnc(C2CCCCC2)o1 (stereo not given)	97	-12	114	87
O=C1C=C(SCC(=O)c2ccccc2)SC(c2ccc(Cl)cc2)C1 (stereo not given)	101	-47	90	85
Cc1ccc(CSc2ncnc3onc(C)c23)cc1	99	2	104	53
CCOC(=O)CN1CCOc2ccccc21	98	-3	101	84
Cc1ccc2oc(-c3cc(NC(=O)/C=C/c4ccco4)ccc3Cl)nc2c1	104	-43	92	88
N#CCSc1nc(-c2ccccc2)c(-c2ccccc2)o1	·	-22	93	97
CC1(C)CC(=O)c2sc(NC(=O)CCCc3ccccc3)nc2C1	·	1	95	89
C=CCNC(=S)Nn1c(C)nnc1-n1nc(C)cc1C	99	·	114	94
CCC1CCCCN1C(=O)c1cnn(-c2ccc(C)cc2)c1-n1cccc1 (stereo not given)	105	-18	90	71
Cc1ccc(/C=C/C(=O)OC(C)C(N)=O)o1 (stereo not given)	·	-44	93	92
CCN(CC)S(=O)(=O)c1ccc(C(=O)NCCSc2c[nH]c3ccccc23)cc1	105	·	110	72
CCC(C)C(NC(N)=O)C(=O)Nc1ccc(S(=O)(=O)Nc2ccc(OC)cc2)cc1 (stereo not given)	·	-11	108	99
N#Cc1cccc(C#N)c1Sc1ccc(Cl)cc1	102	-14	89	89
COc1ccc(N2CCN(CNC(=O)c3ccccc3)CC2)cc1	98	-4	111	74
Cc1cccc(C)c1NC(=O)CCCn1c(=O)c2cccn2c2ccccc21	99	-17	109	97
O=C(CCC(=O)N1CCc2cc(S(=O)(=O)N3CCc4ccccc4C3)ccc21)N1CCOCC1	97	-29	·	·
CC(Oc1ccccc1)C(=O)N1CCN(C(=O)C(C)Oc2ccccc2)CC1 (stereo not given)	99	-2	93	104
CCC(C)NC(=O)C1CCN(c2ccnc(-c3ccc(C)cc3)n2)CC1 (stereo not given)	105	-15	·	·
CCOC(=O)N1CCN(CC(O)COc2c(OC)cccc2OC)CC1 (stereo not given)	102	·	100	86
COc1ccc(C2N3CC4(C)CN2CC(c2ccccc2)(C3)C4=O)cc1 (stereo not given)	96	-36	98	86
Cc1ccc([C@H]2Nc3ccc(S(=O)(=O)Nc4cccc(Cl)c4C)cc3[C@H]3C=CC[C@H]32)cc1	109	-25	103	78
CCC1CCCCN1C(=O)Cn1c(=O)n(CCCCCC(=O)NCc2ccccc2Cl)c(=O)c2sccc21 (stereo not given)	109	-2	119	84
Nc1cccc(-c2nc3ccccc3s2)c1	110	-21	84	66
COc1cc(NC(=O)c2ccc(S(=O)(=O)c3ccc(Br)cc3)nc2)cc(OC)c1	106	-17	·	·
COc1cccc([C@H]2Nc3ccc(S(=O)(=O)Nc4ccc(C)c(C)c4)cc3[C@H]3C=CC[C@H]32)c1OC	119	·	109	67

Three entries out of the list, ordered by molecular weight, ascending.
SMILES	GIV Gai3 FP	HCMV UL50-53 inh	Sa growth 42C	Sa growth 42C second temp
CCOC(=O)N1CCN(CC(O)COc2c(OC)cccc2OC)CC1 (stereo not given)	102	·	100	86
CC(Oc1ccccc1)C(=O)N1CCN(C(=O)C(C)Oc2ccccc2)CC1 (stereo not given)	99	-2	93	104
COc1cccc([C@H]2Nc3ccc(S(=O)(=O)Nc4ccc(C)c(C)c4)cc3[C@H]3C=CC[C@H]32)c1OC	119	·	109	67

The results go on.
SMILES	GIV Gai3 FP	HCMV UL50-53 inh	Sa growth 42C	Sa growth 42C second temp
O=C(O)CCNc1ncnc2sc3c(c12)CCCC3	103	·	28	42
CCc1ccc(Nc2cc(C(=O)N3CCOCC3)c3ccccc3n2)cc1	·	-21	108	85
CCOc1ccc(CCNC(=O)C2COc3ccccc3O2)cc1OCC (stereo not given)	100	2	91	87
CCN(CC)CCCNC(=O)C(C)n1nc(C)n2c(cc3occc32)c1=O (stereo not given)	104	-12	112	92
COc1ccccc1-c1noc(CCCC(=O)Nc2cccnc2)n1	105	-8	·	·
CN1C(=O)c2ccccc2C(C(=O)NCC2CCCO2)C1c1c[nH]c2ccccc12 (stereo not given)	106	2	102	88
CCCc1[nH]nc2c1C(c1ccc(C3C(C#N)=C(N)Oc4n[nH]c(CCC)c43)cc1)C(C#N)=C(N)O2 (stereo not given)	101	-15	·	·
CC(C)NC(=O)C1CCCN(S(=O)(=O)c2ccc3c(c2)nnn3C(C)C)C1 (stereo not given)	99	-5	·	·
COc1ccccc1CCNC(=O)C1CCN(c2nnc(C)c3c(C)n(-c4ccc(C)cc4)nc23)CC1	114	·	91	90
COCCCN1C(=O)CC(Nc2ccc(N(C)C)cc2)C1=O (stereo not given)	97	-148	78	78
CC(C)(Oc1ccc(Cl)cc1)C(=O)NCc1ccc2c(c1)CCO2	99	2	98	57
CC1CCN(C(=O)c2cc(=O)[nH]c3ccccc23)CC1	·	-18	116	91
COc1ccc(-c2ccc(CNc3ccc4[nH]c(=O)[nH]c4c3)o2)cc1Cl	106	-8	102	88
O=C(NCCCc1nc2ccccc2[nH]1)c1ccco1	104	·	105	87
CC(Oc1ccc(C(C)(C)C)cc1)C(=O)NCC1CCCO1 (stereo not given)	98	-11	100	101
CC(C)Oc1cccc(C(=O)NC(C)(C)C)c1	107	18	95	100
COc1ccc(C2=NOC(C(=O)N3CCCCC3C)C2)cc1 (stereo not given)	109	·	87	87
C=C(C)C(=O)NNc1ccccc1	·	6	113	104
O=C1CCN(C(=O)c2ccccc2)C2CCCCC12 (stereo not given)	95	-18	92	97
CC(C)OC(=O)c1cc(N)c2c(-c3ccc(F)cc3)c(-c3cccs3)sc2n1	·	-11	94	100
Cc1ccc(NC(=O)Nc2ncc(-c3ccccc3)n2C)cc1Cl	101	-18	·	·
Clc1ccccc1Nc1c2c(nc3ncnn13)CCC2	107	-2	·	·
CCOC(=O)Cc1csc(NC(=O)CSc2nccn2C)n1	102	-49	92	87
CCCCOc1cccc(C(=O)Nc2sc3c(c2C(=O)OCC)CCCC3)c1	105	-31	102	87
CCOc1ccc(NC(=O)CCNS(=O)(=O)c2ccc3c(c2)CCCC(=O)N3)cc1	106	·	103	98
Cc1ccc(OCCSc2nc3ccccc3n2CC(=O)N2CCOCC2)c(C)c1	110	-2	94	91
CCn1c(SC)nnc1C1CCN(C(=O)C(OC)c2ccccc2)CC1 (stereo not given)	99	-8	108	83
CC1=C(c2ccc(F)cc2)S(=O)(=O)N(CC(=O)Nc2cc(F)ccc2F)C1=O	96	-18	·	·
O=C(c1cccc(Cl)c1)N(Cc1cccc(F)c1)C1CCS(=O)(=O)C1 (stereo not given)	99	-17	107	81
Cc1cc(C)cc(OC2CCCCC2NS(=O)(=O)c2ccc(Cl)cc2)c1 (stereo not given)	101	·	84	66
CC(NC(=O)c1ccc(Br)o1)c1ccccc1 (stereo not given)	·	0	84	87
CC1=C(C)C(=O)C(NCC2CCCO2)=CC1=O (stereo not given)	·	13	16	6
O=S(=O)(c1cccs1)N1CCC2(CC1)OCCO2	102	-12	94	91
CC1=C(C)C(=O)N(c2ccccn2)C1=O	104	-51	93	94
CCOc1ccc2nc(N(Cc3cccnc3)C(=O)c3ccco3)sc2c1	99	·	112	86
N#Cc1ccccc1NC(=S)NC(=O)c1cc(-c2ccco2)nc2ccccc12	·	-24	92	81
Cc1cc(C)nc(NS(=O)(=O)c2ccc(NC(=O)CCN3C(=O)c4ccccc4C3=O)cc2)n1	101	-44	·	·
Cc1ccc(N(C(=O)Cn2nnc(-c3ccc(C)o3)n2)C(C(=O)NC2CCCCC2)c2ccc(F)cc2)c(C)c1 (stereo not given)	104	-19	132	100
CCc1nc2ccccc2[nH]1	·	-18	88	82
COc1ccccc1-c1noc(-c2ccc[nH]c2=O)n1	99	-101	·	·
COc1ccccc1CNC(=O)C1CCN(S(=O)(=O)c2ccc3[nH]c(=O)ccc3c2)CC1	99	·	95	84
CN(c1ccccc1)C1CCCCC1NS(=O)(=O)c1ccccc1 (stereo not given)	102	0	109	77
CC(C)CCNC(=O)CCCCn1c(=O)c2ccccc2n(CC(=O)Nc2ccccc2F)c1=O	103	-28	·	·
O=C(Cn1c(=O)n2ncnc2c2c3c(sc21)CCCC3)c1ccccc1	100	·	116	96
CCOc1ccccc1NC(=O)c1sc2nc(C)nc(N3CCOCC3)c2c1C	105	-15	·	·
Cc1sc2nc(N)sc(=O)c2c1C	·	-24	110	93
O=C(NCc1ccccc1)N1CCn2cccc2C1Cc1ccccc1 (stereo not given)	108	-8	117	92
Cc1ccc(-n2nc(C)c(/C=N/N3CCOCC3)c2Cl)cc1	·	-27	119	90
COc1ccc(-c2cc(C(=O)O)c(C)o2)cc1OC	102	-5	98	97
O=C(O)c1cc(N2CCN(c3cccc(Cl)c3)CC2)nc2ccc(NC(=O)C3CC3)cc12	104	-42	·	·
Cc1ccn2c(Nc3ccccc3C)c(-c3ccncc3)nc2c1	103	17	108	86
COC(=O)c1cnn(-c2ccccc2)c1N	99	·	91	90
COc1cccc(OCCn2cc(C(=O)c3cccs3)c3ccccc32)c1	99	-28	117	100
CCc1ccccc1NC(=O)Cn1c2ncccc2c(=O)n1-c1ccc(C)cc1	104	-10	·	·
CC(C)(C)c1ccc(NC(=O)CSc2nnc(-c3cnccn3)s2)cc1	104	6	107	80
O=C(NCCOc1ccccc1Cc1ccccc1)c1ccc2c(c1)OCO2	·	12	84	103
O=C(CSc1nnc(-c2ccncc2)o1)N1c2ccccc2Sc2ccccc21	100	-28	57	54
N#CCCN1N=C(c2ccccc2)CC1=O	·	-1	103	86
COc1ccc(-c2cc(C(F)(F)F)n3ncc(C(=O)NCc4c(C)nn(C)c4C)c3n2)cc1OC	112	-43	·	·
CCOc1cc(C=C2C(=O)NC(=S)NC2=O)ccc1OCCOc1ccccc1C	111	18	·	·
CCCCNC(=O)Nc1ccn(C)n1	107	-30	86	86
Nn1c(=S)[nH]nc(Cc2ccco2)c1=O	·	-8	90	78
